# Source: PubChem BioAssay (National Center for Advancing Translational Sciences (NCATS))
# Cruzain inh noDet = cruzain (T. cruzi) inhibition without detergent; Potency, µM, for inactives: max response, negative = inhibition, actives largely listed as inhibitors; purified cruzain, Z-FR-AMC fluorescence, no detergent; 200,000 compounds, 2.3% hits; P25779; AID 1476;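 also: plate controls were enzyme without inhibitor for no effect and buffer without enzyme for full effect; nearly all actives have a fitted effect of over 40% in size; top concentration of the series not given in the record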
# Target sequence (P25779 123-467 limits assumed): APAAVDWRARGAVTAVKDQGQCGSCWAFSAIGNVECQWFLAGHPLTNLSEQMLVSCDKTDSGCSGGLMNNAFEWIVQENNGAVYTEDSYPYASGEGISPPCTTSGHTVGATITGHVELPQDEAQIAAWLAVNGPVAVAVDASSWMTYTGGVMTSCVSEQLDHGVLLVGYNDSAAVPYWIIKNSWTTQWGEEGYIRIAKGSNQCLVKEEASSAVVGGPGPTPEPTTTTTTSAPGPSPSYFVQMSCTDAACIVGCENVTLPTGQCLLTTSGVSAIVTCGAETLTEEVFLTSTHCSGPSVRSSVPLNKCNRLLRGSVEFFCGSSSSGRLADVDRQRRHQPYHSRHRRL
#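 Detergent-free condition (0.00005% Triton X-100) in acetate buffer pH 5.5 with DTT. 1.5 nM enzyme and compound were pre-mixed 15 min, then 2 uM Z-FR-AMC substrate added; reaction progress from fluorescence change between first and third reads (60 s).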
# Cruzain Triton = inhibitors of Trypanosoma cruzi cruzain with detergent; Potency, µM, for the others: max response, negative = inhibition, usual class: inhibitors; purified cruzain, Z-FR-AMC fluorescence, 0.01% Triton; 200,000 compounds, 0.43% hits;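 also: plate controls were neutral wells for no effect and buffer without enzyme for full effect; nearly all actives have a fitted effect of over 40% in size; top concentration of the series not given in the record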
#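 In this qHTS format, compounds are incubated with 1.5 nM cruzain for 15 min at room temperature before 2 uM Z-FR-AMC is added. Release of AMC is followed at 360/450 nm, and progress is taken as the 60 s fluorescence difference.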
# NS1 function inh = blocks influenza NS1 protein function; Potency, µM (highest dose often 46.1 µM), for inactives: top-dose activity, positive = more growth; AID 2326; S. cerevisiae slowed by influenza A NS1, growth recovery by OD600; 270,000 compounds, 0.4% hits; active means well fitted rising curve with a large enough effect; inconclusive means small, poorly fitted or top-dose-only effect; inactive means no such curve, though single readings can be large or run the other way; also: nearly all actives have a fitted effect of over 50% in size
#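 S. cerevisiae expressing influenza A NS1, grown in glucose, washed, then diluted 1:100 into pH 6.0 -URA galactose medium with 23 nl compound. Growth recovery read as OD600; NS1-free strain serves as control.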
# MARV entry inh = blocks Marburg virus binding to or entry into cells; Marburg virus pseudotyped entry inhibition, cell reporter; control for the full effect not named in the record; about a third of the inactives were read at about 46 µM; Potency, µM (series often up to 37.8 µM), without a hit: top-dose activity change, negative = inhibition, hits mostly inhibitors; 300,000 compounds, 1.8% hits; AID 540276; active = well fitted inhibition curve with a large enough effect; inconclusive = small, poorly fitted or top-dose-only effect, or effect the other way; inactive = flat fitted curve, though single readings scatter; tested in HEK293 cells; about a fifth of its hits are not listed in these tables; also: % is scaled to controls: 0 for no effect and ±100 for the full control effect; luciferase read-out
# Lassa entry inh = inhibitors of Lassa virus binding or cell entry; Lassa virus pseudotype entry inhibition, cell reporter; control for the full effect not named in the record; Potency, µM (series often up to 37.9 µM), for the others: at the highest dose activity change, negative = inhibition, hits mostly inhibitors; 300,000 compounds, 1.2% hits; active means well fitted inhibition curve with a large enough effect; inconclusive means small, poorly fitted or top-dose-only effect, or effect the other way; inactive means flat fitted curve, though single readings scatter; tested in HEK293 cells; also: % is scaled to controls: 0 for no effect and ±100 for the full control effect; nearly all actives have a fitted effect of over 50% in size; luciferase read-out
# RE007 growth inh = less growth of the S. pombe RE007 Vpr strain. S. pombe RE007 Vpr strain, BacTiter-Glo ATP luminescence, 24 h; control for the full effect not named in the record. Potency, µM (series often up to 92.2 µM), for the others: at the top dose activity change, negative = less growth. 360,000 compounds, 0.21% hits. AID 651644; active = well fitted falling curve with a large enough effect; inconclusive = small, poorly fitted or top-dose-only effect; inactive = no such curve, though single readings can be large or run the other way;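 also: % is scaled to controls: 0 for no effect and ±100 for the full control effect; nearly all actives have a fitted effect of over 50% in size; the assay follows cell death caused by Vpr and the record does not say whether a fall means rescue or toxicity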
#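 Fission yeast strain RE007, carrying one chromosomally integrated HIV-1 vpr copy, was seeded at OD 0.01 in PMG+AL medium with 23 nL pinned compound. After 24 h at 30 °C and 99% humidity, viability was read by BacTiter-Glo luminescence.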
# An asterisk follows results filed as active; ? = inconclusive; . = no result given; & = joins results of further samples; [ ] = dose if it differs, or a comment. Unless noted, calls follow the shape of the dose curve; as a rule, active = well fitted curve in the direction sought with a large enough effect; inconclusive = small, poorly fitted or top-dose-only effect, or another doubt; inactive = no such curve, though single readings can be large; an effect the other way counts as inactive or inconclusive. Potency is read from the fitted curve at half-maximal effect.
# A first look:
SMILES,Cruzain inh noDet,Cruzain Triton,NS1 function inh,MARV entry inh,Lassa entry inh,RE007 growth inh
C[C@H]1Cc2c(-c3ccccc3)nc3c(c2CO1)CN(C(=O)Cc1cccs1)CC3,.,.,.,26%&26%[14.2 µM],.,.
C=CCN1C(=O)C2CCCCC2n2nnc(C(=O)OCC)c21 (stereo not drawn),.,.,.,11%,.,.
COc1cccc([C@@H]2Oc3ccc(Br)cc3C[C@@H]2OC(=O)N[S+](=O)([O-])c2ccc(C)cc2)c1,.,.,.,?,.,.
COC(=O)c1ccc(CN2C(=O)[C@@]3(CC(C)=C[C@@H](COc4ccccc4)O3)c3ccccc32)cc1,.,.,.,21%[14.2 µM],.,.

# Results (from the top)
SMILES,Cruzain inh noDet,Cruzain Triton,NS1 function inh,MARV entry inh,Lassa entry inh,RE007 growth inh
C[C@H]1Cc2c(-c3ccccc3)nc3c(c2CO1)CN(C(=O)Cc1cccs1)CC3,.,.,.,26%&26%[14.2 µM],.,.
C=CCN1C(=O)C2CCCCC2n2nnc(C(=O)OCC)c21 (stereo not drawn),.,.,.,11%,.,.
COc1cccc([C@@H]2Oc3ccc(Br)cc3C[C@@H]2OC(=O)N[S+](=O)([O-])c2ccc(C)cc2)c1,.,.,.,?,.,.
COC(=O)c1ccc(CN2C(=O)[C@@]3(CC(C)=C[C@@H](COc4ccccc4)O3)c3ccccc32)cc1,.,.,.,21%[14.2 µM],.,.
CCOC(=O)[C@@H](C#N)[C@@H](Cc1ccccc1)c1ccco1,.,.,.,1%,.,.
CCOC(=O)[C@@H]1CSc2[nH]c(=O)sc2[C@@H]1c1ccccc1,.,.,.,-4%,.,.
C[N+]12CCC(CC1)[C@H](OC(=O)C(O)(c1ccccc1)c1ccccc1)C2,.,.,.,14%,.,.
COC(=O)C1=C(C(=O)OC)[C@@H]2Nc3ccccc3[C@@]23C[C@@H](C(=O)OC)N(C(=O)Nc2ccccc2F)C3=N1,.,.,.,-9%[14.2 µM],.,.
OC[C@H]1O[C@H](c2ccccc2)C=C[C@H]1O,.,.,.,-8%[14.2 µM],.,.
Cc1c(/C(O)=C2\C(=O)C(=O)N(CCN3CCOCC3)[C@H]2c2cccnc2)cnn1-c1ccccc1,.,.,.,0%,.,.
Cc1ccc(/C(O)=C2\C(=O)C(=O)N(Cc3ccco3)[C@@H]2c2cccs2)cc1,.,.,.,2%,.,.
COC(=O)NC(c1ccccc1)C(C(=O)OC)C(=O)OC (stereo not drawn),.,.,.,28%[14.2 µM],.,.
O=S1(=O)CCSCCN1Cc1ccc(Br)cc1,.,.,.,?,.,.
CCOC(=O)OC[C@H]1O[C@H](c2cc(C)cc(C)c2)C=C[C@@H]1OC(=O)OCC,.,.,.,2%[14.2 µM],.,.
CCOC(=O)c1ccc(NC[C@@H](O)COc2ccccc2)cc1,.,.,.,-2%[46.1 µM],.,.
C[C@@H]1CC[C@H]2C(=O)O[C@H](CN=[N+]=[N-])CN2[C@@H]1c1ccc(Br)cc1,.,.,.,1%&1%[14.2 µM],.,.
COc1cccc([C@H]2C(C(=O)c3cccs3)=C(O)C(=O)N2c2cc(C)on2)c1,.,.,.,13%,.,.
CC(C)C[C@@H]1COc2cc(NCCCN3CCOCC3)ccc2S(=O)(=O)N1,.,.,.,?,.,.
CNC(=O)CN(C#N)c1nc(N(C)C)nc(N(C)C)n1,.,.,.,3%,.,.
Cc1nc2ccccn2c1/C(O)=C1\C(=O)C(=O)N(CCCN(C)C)C1c1ccc(F)cc1 (stereo not drawn),.,.,-4%,1%,.,.
Cc1cc(C)c2c(n1)nn1c(N3CCN(c4cccc(Cl)c4)CC3)cc(C)nc21,.,.,13%,2%,.,.
CN(Cc1ccccc1)S(=O)(=O)c1ccc(S(=O)(=O)N2CCN(CCC#N)CC2)cc1,.,.,12%,-1%,.,.
CCCn1c(C)nc2c(c1=O)c1nc3ccccc3nc1n2CCc1ccccc1,.,.,20%,-3%,.,.
CCOc1ccc2nc(Nc3nc4c(c(=O)[nH]3)CCC4)nc(C)c2c1,.,.,2%,-5%,.,.
Cc1nc(N2CCN(c3ncccn3)CC2)c2oc3ccccc3c2n1,.,.,-36%,0%,.,.
CCCn1c(=NC(C)=O)c(C#N)cc2c(=O)n3cccc(C)c3nc21,.,.,18%,1%,.,.
CCOC(=O)c1cnn(-c2cc(C)c3cc(C)cc(C)c3n2)c1N,.,.,-5%,-3%,.,.
Cc1cc(C)c2c(n1)sc1c(N3CCOCC3)ncnc12,.,.,-25%,2%,.,.
CC1CCN(C(=O)c2ccc(C(=O)N3CCC(C)CC3)cc2)CC1,.,.,10%,3%,.,.
c1cncc(-c2nc3c4ccccc4nc(N4CCC(N5CCCCC5)CC4)n3n2)c1,.,.,15%,2%,.,.
Cn1cc(C2NC(=O)c3c(sc4c3CCCC4)N2)c2ccccc21 (stereo not drawn),.,.,-41%,1%,.,.
O=C1c2ccccc2-c2nc3ncnn3c(-c3ccccc3)c21,.,.,3%,-9%,.,.
CC(C(=O)Nc1ccccc1-c1ccccc1)N1CCN(C(=O)c2ccco2)CC1 (stereo not drawn),.,.,-17%,0%,.,.
COc1ccc(-n2c(=O)c3c4c(sc3n3c(C)nnc23)CCCC4)cc1,.,.,-2%,-5%,.,.
COc1cc(C2c3c(oc4c(C)cc(C)cc4c3=O)C(=O)N2Cc2cccnc2)cc(OC)c1OC (stereo not drawn),.,.,-17%,-1%,.,.
CC(C)(C)OC(=O)N1CCN(c2ccc(NC(=O)c3cc4ccccc4oc3=O)cc2)CC1,.,.,6%,-1%,.,.
CCOc1ccc2cc(C#N)c(SCC(=O)N3CCCC3)nc2c1,.,.,-3%,-1%,.,.
Cc1ccc(S(=O)(=O)Cc2nc(-c3ccc(C(=O)NCc4ccccc4F)cc3)oc2C)cc1,-1%,2.3%,.,.,-20%[46.1 µM],.
COP(=O)(OC)[C@@H](O)C(Cl)(Cl)Cl,1%,-0.1%,.,3%,.,.
COC(=O)[C@@]1(Cc2ccccc2-c2ccco2)C=C[C@H](C)[C@@H](c2ccccc2)N1C(=O)C(F)(F)F,5%,-2.2%,.,?,.,.
Cc1cccc(C)c1Nc1oc(-c2ccccc2)nc1-c1ccccc1,-7%,1.8%,.,-26%&-26%[14.2 µM],.,.
COC(=O)N[C@@H](CCc1ccccc1)[C@]1(C(=O)OC)CCCC1=O,1%,1.7%,.,-9%[14.2 µM],.,.
C=CCC(O)(C#Cc1ccccc1)c1ccccc1 (stereo not drawn),14%,0.8%,.,?,.,.
CCCCCN(CCCCC)C(=O)[C@H](CCC(=O)O)NC(=O)c1ccc(Cl)c(Cl)c1,?,-10%,.,7%,.,.
C[C@@H]1CCc2cc(F)cc3c(=O)c(C(=O)O)cn1c23,-14%,1.9%,.,3%,.,.
CCCCCCCC1=Cc2ccc(F)cc2C(C(C(C)=O)C(=O)OC)N1C(=O)OC (stereo not drawn),-4%,1.1%,.,?,.,.
Cc1ccc(S(=O)(=O)OCCc2ccccc2)cc1,-2%,1.0%,.,5%&5%[14.2 µM],.,.
COC(=O)[C@H](COC(C)(C)C)NC(=O)O[C@@H]1C(=O)c2ccc(OC)cc2O[C@H]1c1cccc(C(F)(F)F)c1,23%,-4.1%,.,-1%&-1%&-1%[14.2 µM],.,.
C=CCOC(=O)N[C@H](c1ccccc1)C(C(C)=O)C(C)=O,-5%,1.2%,.,?,.,.
C=CCOC(=O)N[C@H](/C(C(=O)OC)=C(\C)NCc1ccccc1)c1cccc(C(F)(F)F)c1,-4%,3.2%,.,3%[14.2 µM],.,.
O=S(=O)(CCc1ccccc1)c1nnnn1C1CCCCC1,1%,5.5%,.,-4%&-4%&-4%[14.2 µM],.,.
N#CCCCSc1nnnn1-c1cc(C(F)(F)F)cc(C(F)(F)F)c1,15%,8.6%,.,2%&2%&2%[14.2 µM],.,.
COC(=O)c1nnc(C(=O)NCc2ccccc2)c2[nH]c3ccccc3c12,-4%,2.0%,.,-15%&-15%[14.2 µM],.,.
COC(=O)C/C=C/[C@@H](C)[C@@H](Cc1ccccc1Br)OC,-2%,1.2%,.,-4%[14.2 µM],.,.
COc1cccc([C@@H]2Oc3ccc(OC)cc3C[C@H]2OC(=O)N[C@H]2CCCc3ccccc32)c1,-10%,-2.2%,.,3%[14.2 µM],.,.
COC[C@H]1OC(=O)c2coc3c2[C@@]1(C)C1=C(C3=O)[C@H]2CCC(=O)[C@@]2(C)C[C@H]1OC(C)=O,7%,-8.1%,.,0.045µM*,.,.
COC(=O)/C(Cc1cc(Br)c(OC)c(Br)c1O)=N/O,1%,-0.3%,.,-16%[14.2 µM],.,.
CCCCCCCc1cc2c(cn1)C(=O)C(C)(OC(C)=O)C(O)=C2Cl (stereo not drawn),-7%,-1.9%,.,?,.,.
COc1ccc(-c2nc(-c3ccccc3)c(Nc3c(C)cccc3C)o2)cc1,-6%,2.0%,.,?,.,.
COc1ccc(-c2nc(-c3ccccc3)oc2Nc2c(C)cccc2C)cc1,-4%,-3.5%,.,-3%&-3%[14.2 µM],.,.
# The results go on.
SMILES,Cruzain inh noDet,Cruzain Triton,NS1 function inh,MARV entry inh,Lassa entry inh,RE007 growth inh
CC(C)(C)OC(=O)N1CCC[C@H]1C(O)(c1ccccc1)c1ccccc1,8%,1.0%,.,-13%[14.2 µM],.,.
COc1ccc(OC)c([C@H](O)[C@H](C)N)c1,-5%,-3.5%,.,35%&35%,.,.
COc1cccc([C@@H]2Oc3ccc(Br)cc3C[C@H]2OC(=O)Nc2cc(OC)c(OC)c(OC)c2)c1,-5%,-1.2%,.,-5%[14.2 µM],.,.
COCOc1c2c(c(OCOC)c3c(OCOC)cccc13)/C(=N/N[S+](=O)([O-])c1ccc(C)cc1)C1=C2CCCC1,-5%,4.5%,.,-17%[14.2 µM],.,.
C[C@@H](C[N+](C)(C)C)OC(N)=O,-13%,0.7%,.,17%&17%,.,.
CC(C)=CCn1cnc2c1C(NOCc1ccccc1)=NCN2,4%,1.7%,.,?,.,.
CC1(OC(=O)c2ccc(Cl)nc2)C(=O)C=C2C=C(c3ccsc3)OC=C2C1=O (stereo not drawn),-3%,-0.5%,.,?,.,.
O=C1CCC=C1C(O)c1ccc2c(c1)OCO2 (stereo not drawn),-7%,3.1%,.,?,.,.
COc1cccc([C@@H]2Oc3ccc(Br)cc3C(=O)[C@H]2OC(=O)N[C@H](C)C2CCCCC2)c1,1%,8.2%,.,-30%[14.2 µM],.,.
CC1(OC(=O)c2ccc(Cl)nc2)C(=O)C=C2C=C(C3CC3)OC=C2C1=O (stereo not drawn),-11%,1.6%,.,?,.,.
COC(=O)C(C(=O)OC)C1c2ccccc2C=C(C2CC2)N1C(=O)OC (stereo not drawn),-7%,0.8%,.,?,.,.
C[C@H]1[C@@H](OS(=O)(=O)O)C[C@@H]2C[C@H]([C@@H](O)c3cc(=O)[nH]c(=O)[nH]3)NC3=NC[C@H]1N32,.,.,.,.,.,-10%

# Only part of the results is shown; count on the stated rates, not on these rows.
